Measles inh – inhibitors of measles virus growth in cells, primary screen, measles RdRp inhibitor project, cell-based, single point, HTS; infected Vero cells, GFP fluorescence, 64 h; stronger effect = lower value; z-score (test concentration not listed); 0.1% of 33,000 active; AID 745, 2007;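 active = z-score under -3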;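 also: score is relative to mean and SD of the compound wells of a plate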
Starred values were filed as active, the others as inactive.

SMILES	Measles inh
C=CCN(c1ccccc1)S(=O)(=O)c1ccc(F)c(C(=O)Nc2ccc(Cl)cc2C(F)(F)F)c1	1.2
O=C(NCCCCl)c1c(O)c2c([nH]c1=O)CCCC2	-1.1
CC(Nc1cc(N2CCN(C(=O)c3cccc(F)c3)CC2)ccc1[N+](=O)[O-])c1ccccc1 (centres undefined)	0.85
COc1cc2c(cc1OC)C(C(=O)N1CCN(c3ccc(F)cc3)CC1)C(c1ccc(SC)cc1)N(C)C2=O (centres undefined)	0.12
COc1ccc(-n2nc3c(c2NC(=O)COc2ccccc2)CSC3)cc1	0.35
CCOC(=O)c1[nH]c2c([N+](=O)[O-])cc(OC)cc2c1-c1ccccc1	0.52
COc1cccc(NC(=O)c2cccc(N3C(=O)C4CCC(C)CC4C3=O)c2)c1 (centres undefined)	0.87
CCC(=O)N1CCc2cc(Br)cc(S(=O)(=O)N3CCCC(C(=O)NCC4COc5ccccc5O4)C3)c21 (centres undefined)	-0.57
O=C(NCCN1CCOCC1)c1cccn2c(=O)c3cc4ccccc4cc3nc12	-0.66
CCOc1ccc(C2=Nn3c(nnc3-c3ccccc3)SC2)cc1Cl	-0.26
COC(=O)C1=C(C)NC2=C(C(=O)CC(c3cccs3)C2)C1c1ccsc1 (centres undefined)	0.3
CC(=O)OC1CCC(OC(C)=O)c2c1n([O-])c(C)c(C)[n+]2=O (centres undefined)	-0.32
CCc1ccc(NC(=O)c2cc3cc4ccc(OC)cc4nc3s2)cc1	1.2
Cc1ccc(NS(=O)(=O)c2cc(Br)cc3c2N(C(=O)C2CC2)CC3)cc1Cl	1.5
COc1cc(-c2cc(C(=O)O)c3cc(Br)ccc3n2)cc(OC)c1OC	-0.57
CC1C(=O)CC(c2ccccc2)NC1c1ccccc1 (centres undefined)	0.09
C=CCN(c1ccccc1)S(=O)(=O)c1ccc2c(c1)CCN2C(C)=O	-0.04
CC(=O)Nc1ccc(S(=O)(=O)NCC2CCC(C(=O)NC3CCCCCC3)CC2)cc1 (centres undefined)	1.1
O=c1nc(Sc2ccccc2)nc(N2CCOCC2)[nH]1	-0.6
CCc1ccc(-c2cc(C(=O)NC(C)(C)C)c3ccccc3n2)cc1	1.6
COc1ccc2c(c1OC)C(=O)N(c1ccc(OC(F)(F)F)cc1)C2	-0.25
C=CCNc1nc(C2(C)CC3(CC(C)(C)OC3=O)C(=O)O2)cs1 (centres undefined)	0.24
COCCN1C(=O)c2ccccc2C(C(=O)Nc2cccc(C(F)(F)F)c2)C1c1cn(C)c2ccccc12 (centres undefined)	0.47
O=C(CSc1nnnn1-c1ccc2c(c1)OCO2)Nc1ccc(OC(F)(F)Cl)cc1	-0.89
CN(Cc1ccccc1)c1cc(NCCCO)c([N+](=O)[O-])c2nonc12	-1.2

Rewritten with values ahead of the structure: three of the compounds above
Measles inh | structure
-0.57 | COc1cc(-c2cc(C(=O)O)c3cc(Br)ccc3n2)cc(OC)c1OC
-0.26 | CCOc1ccc(C2=Nn3c(nnc3-c3ccccc3)SC2)cc1Cl
0.47 | COCCN1C(=O)c2ccccc2C(C(=O)Nc2cccc(C(F)(F)F)c2)C1c1cn(C)c2ccccc12 (centres undefined)

(cont.)
SMILES	Measles inh
Cc1cc(NC(=O)CCN2CCN(CCO)CC2)no1	-1.6
COc1cccc(OCCNc2cc(N3CCN(C)CC3)ccc2[N+](=O)[O-])c1	0.42
O=C(O)CCCNC1CC(=O)N(c2ccccc2)C1=O (centres undefined)	-0.77
CCCCNC(=O)c1sc2ncnc(N(C)c3ccccc3)c2c1C	0.67
CCCC(=O)N1c2ccc(OCC)cc2C(=C2SC(C(=O)OC)=C(C(=O)OC)S2)C(=S)C1(C)C	0.35
Cc1ccc(C)c(N2CCN(S(=O)(=O)c3cc(C(=O)Nc4ccccc4C)ccc3F)CC2)c1	-0.69
Nc1ccc(OCc2ccccc2)cc1	-0.2
COc1ccc(C(=O)COC(=O)c2cccc(N3C(=O)C4C5CCC(C5)C4C3=O)c2)cc1 (centres undefined)	-0.39
CC1CCc2c(sc3ncnc(NCCN4CCOCC4)c23)C1 (centres undefined)	1.5
Cc1cccc(-c2ccc3ccccc3n2)c1	-0.09
COc1cc(C2C=C(Nc3ccc(C)cc3)C(=O)N2c2ccc(C)cc2)ccc1O (centres undefined)	-0.92
Cc1ccc(Nc2cc(C(=O)O)c3ccccc3n2)cc1	0.65
Fc1cccc2c1NC(c1ccc(Cl)cc1)C1CC=CC21 (centres undefined)	0.76
Cc1cc(N2CCOCC2)nc2ccc(NC(=O)CCC(=O)Nc3ccc(F)cc3)cc12	1.5
O=C(Nc1cc2cccc([N+](=O)[O-])c2oc1=O)c1ccc(F)cc1	-1.1
CC(=O)c1cccc(NC2OC(=O)c3ccccc32)c1 (centres undefined)	0.2
Cc1ccc(-c2csc3nc(C(C)C)oc(=O)c23)c(C)c1	1.2
CN1CCN(C(=O)c2ccc3c(=O)n(CCc4ccccc4)c(=S)[nH]c3c2)CC1	0.66
COc1ccc(N2CCn3c2nc2c3c(=O)n(C)c(=O)n2C)cc1	0.81
CCN1CCN(c2ccc(C(=O)Nc3ccc(Cl)cc3)cc2[N+](=O)[O-])CC1	-1.1
CCOC(=O)C1C(=O)C=C(c2cccs2)CC1c1cccc([N+](=O)[O-])c1 (centres undefined)	0.74
CSC1=NCCN1C(=O)C12CC3CC(CC(C3)C1)C2	0.61
Cc1cccc(N2C(=O)c3ccc(NC(=O)c4ccc(Br)cc4)cc3C2=O)c1	1.4
CCCc1oc2ccc(NS(=O)(=O)c3cc([N+](=O)[O-])ccc3Cl)cc2c1C(=O)OCC	-0.27
Cc1ccc(S(=O)(=O)N2CCN(S(C)(=O)=O)C2C)cc1 (centres undefined)	-0.79

Five structures already listed, sorted by formula weight, falling:
SMILES	Measles inh
COc1ccc(C(=O)COC(=O)c2cccc(N3C(=O)C4C5CCC(C5)C4C3=O)c2)cc1 (centres undefined)	-0.39
COc1cccc(OCCNc2cc(N3CCN(C)CC3)ccc2[N+](=O)[O-])c1	0.42
CC1CCc2c(sc3ncnc(NCCN4CCOCC4)c23)C1 (centres undefined)	1.5
CSC1=NCCN1C(=O)C12CC3CC(CC(C3)C1)C2	0.61
CC(=O)c1cccc(NC2OC(=O)c3ccccc32)c1 (centres undefined)	0.2

(listing goes on)
SMILES	Measles inh
CCNS(=O)(=O)c1cc(-c2nnc(OC)c3ccccc23)ccc1C	-0.34
CCCSc1nnc2c(n1)OC(c1cccs1)Nc1ccccc1-2 (centres undefined)	-0.11
O=c1c2cc([N+](=O)[O-])ccc2nc(CN2CCN(c3ccccc3)CC2)n1-c1ccccc1F	-1.9
CN(Cc1ccccc1)C(=O)c1ccc(N2CC3CC(C2)c2cccc(=O)n2C3)c(NC(=O)c2ccccc2Br)c1 (centres undefined)	-0.05
Cc1c(NC(=O)CN(c2cc(C(F)(F)F)ccc2Cl)S(C)(=O)=O)c(=O)n(-c2ccccc2)n1C	-0.35
Cc1cccc(C)c1NC(=O)CN1C(=O)C(=O)c2ccccc21	-1.1
Nc1cc(N)cc(C(=O)OCc2nc3cc4ccccc4cc3[nH]2)c1	-0.97
COc1ccc(-n2c(SCC(=O)Nc3cccc(Cl)c3)nc3c([nH]c4ccccc43)c2=O)cc1	0.54
COC(=O)c1ccc(NC(=O)COc2ccc(C(C)C)c(C)c2)cc1	0.16
O=C1C2C3c4ccccc4C(CO)(c4ccccc43)C2C(=O)N1c1ccc([N+](=O)[O-])cc1 (centres undefined)	4
CCCCN(C(=O)NC(=O)Nc1ccccc1)S(C)(=O)=O	-1.1
Cc1cc(C)c2oc(-c3cccc(NC(=O)c4ccccc4F)c3)nc2c1	0.04
COc1cc2c(cc1NC(=O)c1c(OC)cccc1OC)oc1ccccc12	1.2
Clc1ccc(N2COc3cc4c(cc3C2)OCO4)cc1	-0.62
C=CCOc1nc2c(c(=O)n(C)c(=O)n2C)n1Cc1cccc(Cl)c1	0.99
CS(=O)(=O)CCC(C(=O)Nc1ccccc1)N1C(=O)c2ccccc2C1=O (centres undefined)	-1.6
CCOC(=O)c1c(NC(=O)C2CCCCC2)sc(C(=O)Nc2cc(C)ccc2C)c1C	1.1
OCCN1CCN(CC#CCC(c2ccccc2)c2ccccc2)CC1	0.26
C=CCOc1ccc(C(C2=C(O)CC(C)(C)CC2=O)C2C(=O)CC(C)(C)CC2=O)cc1 (centres undefined)	0.57
Oc1ccc(C2Nc3cccc4cccc(c34)N2)cc1O	-1.3
CCOc1ccccc1NC(=O)CSc1nc2c([nH]c3ccccc32)c(=O)n1-c1ccc(F)cc1	0.96
COc1ccc(S(=O)(=O)N2CCc3ccccc3C2)cc1OC	-0.28
O=C(c1cc(-c2cccnc2)nc2ccccc12)N1CCCC1	0.14
C=CCOC(=O)C1=C(C)Nc2nc3ccccc3n2C1c1ccc(Br)cc1 (centres undefined)	-0.54
CCOc1cc([N+](=O)[O-])cc(C=Nc2cccc(-c3nc4cc(C)ccc4o3)c2)c1O	-0.16

Part of the list above, with the structure last:
| Measles inh | structure |
| --- | --- |
| 0.96 | CCOc1ccccc1NC(=O)CSc1nc2c([nH]c3ccccc32)c(=O)n1-c1ccc(F)cc1 |
| -0.28 | COc1ccc(S(=O)(=O)N2CCc3ccccc3C2)cc1OC |
| 0.14 | O=C(c1cc(-c2cccnc2)nc2ccccc12)N1CCCC1 |

Continuation.
SMILES	Measles inh
COc1ccc(-c2noc(CCC(=O)N3CCN(c4ccccc4OC)CC3)n2)cc1	0.87
COc1cccc(NC(=O)N(C2CCCCC2)C(C)c2cccs2)c1 (centres undefined)	-1.1
Cc1c(C(=O)N2CCCCC2)sc2nc(SCC(=O)C(C)(C)C)n(CCc3ccccc3)c(=O)c12	-0.04
COc1cccc(CN2CCN(C(=O)c3ccccc3OC)CC2)c1	-0.46
Cc1ccc2nc(-c3ccccc3)cc(C(=O)Nc3cccc([N+](=O)[O-])c3)c2c1	-2.2
Cc1ccc(S(=O)(=O)NCCC(=O)NCCc2ccccc2Cl)cc1	0.34
CC(CN1CCCC1)OC(=O)c1cccc(Br)c1 (centres undefined)	-0.37
CCC(C)Nc1ncnc2c1cnn2-c1ccc(OC)cc1 (centres undefined)	-1.1
O=C1c2cccc3c(NCCO)ccc(c23)C(=O)N1CCO	8.5
CC(=O)N(Cc1ccco1)C1(C(=O)NC2CCCC2)CCCCC1	-0.5
Cc1ccc2c(c1C)NC(c1ccc([N+](=O)[O-])cc1)C1CC=CC21 (centres undefined)	-0.75
Cc1ccc(C)c(N=c2oc3ccc([N+](=O)[O-])cc3cc2C(=O)Nc2nccs2)c1	0.44
COc1ccc(-c2cc(C(=O)Nc3c(C)nn(Cc4ccccc4)c3C)no2)cc1	0.37
CCOC(=O)c1ccc(N=C2SC(C(=O)Nc3ccc(OC(F)(F)Cl)cc3)CC(=O)N2C)cc1 (centres undefined)	1.1
O=C(Oc1ccc(OC(=O)c2cccnc2)cc1)c1cccnc1	1
CC(=O)c1ccc(C(=O)Nc2ccc(-c3ccc(NC(=O)c4ccc(C(C)=O)cc4)c(C)c3)cc2C)cc1	0.04
COc1ccc(C=Nc2ccc3oc(-c4cccc(F)c4)nc3c2)cc1Cl	0.61
Cc1nc2sc(C(c3ccco3)N3CC(C)OC(C)C3)c(O)n2n1 (centres undefined)	1.7
CCc1ccc2oc(-c3cccc(NC(=O)c4ccccc4Br)c3)nc2c1	2
Cc1ccc(-n2nc3c([n+]2[O-])CCc2nonc2-3)cc1	0.61
C#CCn1c2ccccc2c2nc3ccccc3nc21	0.42
COc1ccc([N+](=O)[O-])cc1NC(=O)C1c2ccccc2C(=O)N2CCc3ccccc3C12 (centres undefined)	-0.82
O=C(O)c1ccc(C2Nc3ccccc3-c3nnc(SCc4ccccc4)nc3O2)cc1 (centres undefined)	0.64
CCOc1ccc(NC(=O)c2ccc(F)c(S(=O)(=O)N3CCCCC3C)c2)cc1 (centres undefined)	-0.02
CCOc1ccc(-n2nc3cc(C)c(NC(=O)CC)cc3n2)cc1	-0.61

Some of the entries above, reformatted:
structure,Measles inh
CCC(C)Nc1ncnc2c1cnn2-c1ccc(OC)cc1 (centres undefined),-1.1
Cc1ccc2c(c1C)NC(c1ccc([N+](=O)[O-])cc1)C1CC=CC21 (centres undefined),-0.75
O=C1c2cccc3c(NCCO)ccc(c23)C(=O)N1CCO,8.5

The list goes on:
SMILES	Measles inh
CN(C(=O)c1cc2c(=O)oc3ccccc3c2s1)c1ccc(Br)cc1	-1.2
CCCOC(=O)COc1ccc2c(=O)c(Oc3cc(C)c(Cl)c(C)c3)coc2c1	-0.34
CCOC(=O)C1=C(C)N(C)C(C)=C(C(=O)OCC)C1c1cccc(F)c1	-0.06
CN(CC(=O)Nc1ccc2c(c1)OCO2)S(=O)(=O)c1cccs1	-0.42
O=C(Nc1ncc(Cc2ccccc2Cl)s1)c1cccc2ccccc12	-0.85
CCC(C)NC(=O)C1CCCN(S(=O)(=O)N2CCC(C)CC2)C1 (centres undefined)	-1.3
CC(=O)N1CCc2cc(S(=O)(=O)NC3CCCC3)ccc21	-0.69
CCc1ccc(C2C(C(=O)OC(C)C)C(=O)CC(C)(O)C2C(=O)OC(C)C)cc1 (centres undefined)	0.22
COC(=O)C1=C(C)NC2=C(C(=O)CC(c3ccc(OC)cc3)C2)C1c1ccc2c(c1)OCO2 (centres undefined)	-0.77
COc1cc(CNc2ccc(N3C(=O)C4CCCCC4C3=O)cc2[N+](=O)[O-])cc(OC)c1 (centres undefined)	-1.5
CC1CC(C)(C)NC(=S)N1CCCC(=O)Nc1ccc(OC(F)(F)F)cc1 (centres undefined)	-0.9
O=C(CCCN1C(=O)c2cccnc2C1=O)Nc1ccccc1F	-0.72
CC(=O)Nc1ccc(N2C(=O)C3C4CC(C(Br)C4Br)C3C2=O)cc1 (centres undefined)	-1.8
Cc1ccc(CNC(=O)CCSCc2ccc(C)cc2)cc1	0.03
CCc1ccc(C(=O)CC2(O)C(=O)N(Cc3ccc(C)cc3)c3ccccc32)cc1 (centres undefined)	0.09
CCCCC1=NN(C(=O)c2ccccc2Cl)C(O)(C(F)(F)F)C1 (centres undefined)	0.64
COc1ccccc1NC(=O)C(=O)NCc1ccc(Cl)cc1	0.1

Some of the compounds tested; count on the stated rates, not on these rows.
